Assay outcomes from PubChem.
Biofilm kill mix = mixture kills Candida albicans biofilm cells; inhibition, % at 7.6 µM; actives 0.02% (n = 120,000); C. albicans biofilm persisters + clotrimazole, fluorescence viability; primary screen in compound mixtures of four per well;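 active means inhibition above 30.3% in the primary screen of four-compound pools, then above 30% when the compound was retested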;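 further: compounds exposed to preformed 24 h biofilms for 48 h; the number belongs to the whole pool; some results filed as inactive read as strong as hits; inactives centre near 12; 0% = biofilm with clotrimazole alone and 100% = kill control; retested singly at about 60 µM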
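System: C. albicans CAF4-2 wild-type biofilms; Medium: RPMI/MOPS medium, pH 7.0; Reagent: Clotrimazole, 50 µg/mL; Times: biofilm formation 24 h, compound exposure 48 h, 37 °C; Detection: 2-h Alamar Blue fluorescence, 535/590 nm excitation/emission; Evaluation: percent inhibition of biofilm viability.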
* marks the source's active call; other numbers are inactive results.

Start of the listing, in advance:
cpd	structure	Biofilm kill mix
1	CCOc1cc(N2CCOCC2)c(OCC)cc1NC(=O)c1ccc(S(=O)(=O)N(C)C)cc1	20
2	COCCCN(CC(=O)O)S(=O)(=O)c1ccccc1	-3

Main list, repeating the preview:
cpd	structure	Biofilm kill mix
1	CCOc1cc(N2CCOCC2)c(OCC)cc1NC(=O)c1ccc(S(=O)(=O)N(C)C)cc1	20
2	COCCCN(CC(=O)O)S(=O)(=O)c1ccccc1	-3
3	COc1ccccc1N1CCN(Cc2cn[nH]c2-c2ccc(F)cc2)CC1	-3
4	CN1CCN(c2ccc(Cl)cc2NC(=O)/C=C/c2cccc(F)c2)CC1	10
5	C=CCOc1ccc(C=Nc2ccc(C)c(Cl)c2)c(O)c1	15
6	CN(C)CCCN=c1cc(-c2ccccc2)oc2ccc(Cl)cc12	22
7	CCOC(=O)c1cc(-c2cccnc2)nn1-c1ccccc1	7
8	O=C(NCc1ccccc1)C(=O)NCC1OCCN1C(=O)c1cccs1 (stereo not given)	3
9	O=C(COC(=O)C1CC(=O)N(Cc2ccco2)C1)c1ccc(OC(=O)c2ccccc2)cc1 (stereo not given)	7
10	CCOc1ccc(-c2cc(C(=O)NN3CCN(C)CC3)c3cc(Cl)ccc3n2)cc1	19
11	COc1ccc(N2C(=O)S[C@@H]3CS(=O)(=O)C[C@@H]32)cc1	14
12	CC1SCC(=O)N(CC(=O)NC2CCCCC2)C1=O (stereo not given)	9
13	CC(/C=C/c1cccc([N+](=O)[O-])c1)=N\NC(=O)c1ccncc1	16
14	Cc1cccc(NC(=O)C(=O)NCc2ccc3c(c2)OCO3)c1C	9
15	C=CCNc1cnn(-c2ccc(C)cc2)c(=O)c1Sc1ccc(C)cc1	1
16	CCN(CC)S(=O)(=O)c1cccc(NC(=O)COc2ccc(C#N)cc2OC)c1	17
17	CCC(=O)NS(=O)(=O)c1ccc(N=NN2CCCCC2)cc1	6
18	O=C(O)c1cccc(NC(=S)NC(=O)c2ccncc2)c1	11
19	CCn1cc(CNCc2ccc(OCC(O)CN(C)Cc3ccccc3)cc2)cn1 (stereo not given)	20
20	CCCCNC(=O)CSc1nc2cc3c(cc2c(=O)n1CCC(=O)NCCc1ccc(OC)c(OC)c1)OCO3	20
21	COc1ccccc1NC(=O)CCSc1nnc(-c2ccco2)o1	19
22	O=C(O)[C@@H]1Cc2ccccc2N1	6
23	CC(=O)N1N=C(c2cccc(Br)c2)OC12CCCC2	13
24	O=C(CSc1ncnc2scc(-c3ccc(F)cc3)c12)c1ccc2c(c1)OCCO2	14
25	O=C(N/N=C/c1cccs1)C(=O)Nc1cccc(Cl)c1	1
26	CCOC(=O)C(NCCc1ccc(F)cc1)(NC(=O)CC)C(F)(F)F (stereo not given)	10
27	O=C(c1ccc2c(c1)OCO2)C1CCCN(C(=O)Nc2ccc(F)cc2F)C1 (stereo not given)	13
28	C#CCOC(=O)CCCC(=O)NCCCCCCCC	12
29	CCCc1[nH][nH]c(=O)c1C(c1ccc(Cl)cc1)C(C#N)C#N (stereo not given)	7
30	COc1ccc(S(=O)(=O)NCC2CCCN(C(=O)CNC(C)=O)C2)cc1 (stereo not given)	2
31	CCOc1cccc2cc(C(=O)Nc3ccccc3-c3ccccc3)c(=O)oc12	6
32	On1c(-c2ccc(Cl)cc2)nc2ccccc21	24
33	C/C(=N\NC(=S)Nc1ccc(C(C)C)cc1)c1ccc2c(c1)OCO2	6
34	CC1(C)OC2C(CO)OC(n3cnc4c(=S)nc[nH]c43)C2O1 (stereo not given)	4
35	CCNS(=O)(=O)c1ccc(CCC(=O)NC2CCCC2)cc1	18
36	CCOC(=O)Cn1ccc(-c2ccccc2)c(C#N)c1=O	19
37	Nc1ccc2c(c1)OCCOCCOCCOCCOCCO2	12
38	COC(=O)c1ccc(/C=C/C(=O)c2cccc(OC)c2)cc1	-1
39	CN(C(=O)c1ccc2c(c1)SC1=NS(=O)(=O)CCN12)C(c1ccccc1)c1ccccc1	14
40	CCCCC(=O)Nc1cccc(C(=O)N/N=C/c2ccc(OC)cc2OC)c1	7
41	CN(Cc1ccccc1)C(=O)c1[nH]cnc1C(=O)N[C@@H](CCCCNC(=O)OC(C)(C)C)C(=O)OC(C)(C)C	16
42	Cc1cc(NC(=O)c2ccc3c(c2)C(=O)N(C(C)(C)C)C3=O)no1	10
43	CC(=O)Nc1ccc(S(=O)(=O)N2CCN(CC(=O)N3CCOCC3)CC2)cc1	2
44	O=C(CN1CCC(NC(=O)c2ccc(Br)cc2)CC1)NCc1cccs1	53
45	COc1ccc(C(=O)Nc2ccc3nc(N4CCCCC4)cc(C)c3c2)c(OC)c1	10
46	CN(C)S(=O)(=O)c1cccc(NC(=S)N2CCCCC2CO)c1 (stereo not given)	1
47	O=C(O)c1ccccc1SC1CC(=O)N(c2ccc3c(c2)OCO3)C1=O (stereo not given)	15
48	O=C(NCCCN1CCOCC1)c1ccc(NC(=O)C2COc3ccccc3O2)cc1 (stereo not given)	3
49	CCn1c(SCC(=O)NC2CCS(=O)(=O)C2)nnc1-c1ccccc1 (stereo not given)	7
50	CSc1ncccc1C(=O)N1CCCC(C(=O)c2ccc3ccccc3c2)C1 (stereo not given)	14
51	O=C(/C=C/c1ccccc1)c1ccc2c(c1)OCO2	11
52	O=C(C1CCCN(S(=O)(=O)c2ccccc2[N+](=O)[O-])C1)N1CCN(c2ccccc2)CC1 (stereo not given)	15
53	O=c1c2ccccc2c(/C=N/c2n[nH]c(CCCO)n2)c(O)n1-c1ccccc1Cl	-1
54	COc1ccc(C(=O)NC(=S)Nc2ccc(S(=O)(=O)Nc3cc(C)on3)cc2)cc1OC	19
55	COC(=O)C1=C(Nc2ccc(C)cc2)C=C(C)C(C(=O)OC)C1c1ccc(F)cc1 (stereo not given)	12
56	CCCn1nc(C(=O)Nc2ccc3nc(C)sc3c2)c2ccccc2c1=O	9
57	COc1cccc(N2CCN(c3cnc4ccccc4n3)CC2)c1	3
58	CN1CCC(=NOc2ccc([N+](=O)[O-])cc2)CC1	29
59	Cc1cccc(NC(=S)NC2CCCCC2)n1	3
60	CCOC(=O)C(=CNc1ccc2c(c1)CCN2C(C)=O)C(=O)OCC	13

Continuation.
cpd	structure	Biofilm kill mix
61	Cc1c(CNCC(C)c2ccccc2)c(C(=O)O)c(C)n1Cc1ccccc1 (stereo not given)	13
62	CCOc1ccc2c(c1)C(c1ccc(C)o1)=NNC(c1ccncc1)=N2	11
63	COc1ccc(CN2CN(S(=O)(=O)c3ccccc3)c3nc4ccccc4nc32)cc1	17
64	COc1ccccc1NC(=O)c1ccc(CSc2ncccn2)cc1	4
65	CC1(C)OC2C(O1)[C@@H](CO)O[C@H]2n1cnc2c(N)ncnc21 (stereo not given in full)	20
66	Nc1nnc(SCc2ccccc2)n1-c1ccccc1	13
67	CCCCCCOC(=O)Nc1ccc(S(=O)(=O)Nc2cccc([N+](=O)[O-])c2)cc1	6
68	COc1ccc([N+](=O)[O-])cc1NC(=O)C1(c2ccc(OC)c(OC)c2)CCOCC1	3
69	Oc1ccc(-c2nnc(-c3ccccc3)c(-c3ccccc3)n2)cc1	14
70	Cn1ccnc1/C(=N\NC(=O)c1ccc(O)cc1)c1cccc([N+](=O)[O-])c1	25
71	CC(=O)c1cccc(NC(=O)c2nc(-c3ccccc3)oc2C)c1	20
72	O=C(C[n+]1ccc(C(=O)NCc2ccccc2)cc1)c1ccc(OC(F)F)cc1	15
73	CN(c1nc2ccccc2n2c(C3CC3)nnc12)S(=O)(=O)c1ccccc1	28
74	Cc1ccc(C23CC4CC(CC(CC(=O)N5CCOCC5)(C4)C2)C3)cc1	4
75	CCOC(=O)C1CCN(S(=O)(=O)c2ccc(C(C)(C)C)cc2)CC1	16
76	COC(=O)c1ccc(-n2nc(C(F)(F)F)c3c2-c2ccoc2CC3)cc1	9
77	O=c1cc(CSc2ccccc2)nc(-c2ccncc2)[nH]1	2
78	O=C(NCc1ccco1)NC1CCCCC1	17
79	Cc1ccc(C(=O)COC(=O)c2ccncc2)cc1[N+](=O)[O-]	20
80	O=C(Oc1c(Cl)cc(Cl)c2cccnc12)c1cccc([N+](=O)[O-])c1	20

Arranged by count of non-hydrogen atoms (lowest first): part of the list above.
cpd	structure	Biofilm kill mix
25	O=C(N/N=C/c1cccs1)C(=O)Nc1cccc(Cl)c1	1
68	COc1ccc([N+](=O)[O-])cc1NC(=O)C1(c2ccc(OC)c(OC)c2)CCOCC1	3
41	CN(Cc1ccccc1)C(=O)c1[nH]cnc1C(=O)N[C@@H](CCCCNC(=O)OC(C)(C)C)C(=O)OC(C)(C)C	16

(list continues)
cpd	structure	Biofilm kill mix
81	Cc1ccc(NS(=O)(=O)c2ccc(Cl)c(C(=O)O)c2)cc1S(=O)(=O)N1CCOCC1	16
82	CC(C)(C)OC(=O)NCc1ccc(NC(=O)c2nc[nH]c2C(=O)N[C@@H](Cc2ccccc2)C(=O)OCc2ccccc2)cc1	8
83	S=c1[nH]nc(-c2cccnc2)n1/N=C/C=C/c1ccco1	10
84	COc1ccc(C(=O)Nc2ccccc2C(=O)NC(Cc2ccc(O)cc2)C(=O)NNC(=O)c2ccccc2)cc1 (stereo not given)	15
85	CCOc1cc(N2CCOCC2)c(OCC)cc1NC(=S)NCCCOC	5
86	CC(C)CCn1c(Sc2nc3ccccc3o2)nc2c1c(=O)[nH]c(=O)n2C	17
87	COC(=O)C(C)(C)ONC(=O)Nc1ccc([N+](=O)[O-])cc1	8
88	CCOC(=O)CSc1nc2cc3c(cc2cc1CC)OCCO3	7
89	O=C(Nc1ccc(Cl)c([N+](=O)[O-])c1)C(Sc1ccccc1)c1ccccc1 (stereo not given)	-2
90	O=C(Cc1cn(Cc2cccc(Cl)c2)c2ccccc12)N1CCCCCC1	12
91	COc1ccc(-n2c(SCc3cccnc3)nc3c(c2=O)SCC3)cc1OC	14
92	COc1ccc(C(=O)N2CCN=C2SC)cc1	3
93	c1cc(CNCC2CCCO2)ccn1 (stereo not given)	18
94	COc1cc(C(=O)NNC(=O)c2ccoc2C)cc(OC)c1OC	18
95	COc1c2ccoc2c(OC[C@@H](O)C(C)(C)O)c2oc(=O)ccc12	12
96	Cc1cccc(OCC(=O)NCC(=O)N/N=C/c2cccs2)c1	11
97	O=C1c2cccc3c(N4CCCCC4)ccc(c23)C(=O)N1c1ccccc1O	10
98	CCCN1CCN(CCCNC(=O)c2cc3c(=O)[nH]c4ccccc4c3s2)CC1	13
99	OCCC1CN(Cc2cc3c(cc2Cl)OCO3)CCN1Cc1ccccc1 (stereo not given)	20
100	Cc1ccc(C(=O)/C=C/C(=O)O)cc1	14
101	COCCNC(=O)C1=NOC(Cn2cc(C#N)c(=O)n(C)c2=O)C1 (stereo not given)	3
102	O=C(CN1c2ccccc2Sc2ccccc21)NNC(=O)Nc1ccc(Cl)c(Cl)c1	35
103	COC(=O)CN1C(=O)Nc2ccc(C)cc2C1c1ccccc1 (stereo not given)	21
104	O=C(CCCC(=O)OCC(Cl)=C(Cl)Cl)Nc1ccccc1F	21
105	CCOc1ccc(C(=O)Nc2cccc3nsnc23)cc1[N+](=O)[O-]	1
106	Cc1c(C(=O)Nc2ccc(-c3nnc4n3CCCCC4)cc2)oc2ccc(Br)cc12	5
107	O=C(COC(=O)c1cc(Br)ccc1O)Nc1cc(S(=O)(=O)N2CCCC2)ccc1Cl	19
108	CN(C)S(=O)(=O)c1ccc(C(=O)Nc2cccc(S(=O)(=O)NC3=NCCC3)c2)cc1	16
109	Cc1ccc(C(=O)NCCCNc2ccc(C(F)(F)F)cc2[N+](=O)[O-])cc1	15
110	COc1ccc(/C=N/N=C2/NC(=O)C(CC(=O)O)S2)cc1OS(=O)(=O)c1ccccc1 (stereo not given)	17
111	O=C(N/N=C/c1cccs1)c1cccc(NC(=O)c2ccc(Cl)cc2)c1	23
112	CC1Cc2ccccc2N1S(=O)(=O)c1c(N)n(C)c(=O)n(C)c1=O (stereo not given)	23
113	CN(C)CCCNC(=O)C(=O)NCC1CCCO1 (stereo not given)	19
114	COc1ccc(N2C(=O)C(F)(F)C2c2ccccc2F)cc1 (stereo not given)	7
115	Cc1ccc2nc(/C(C#N)=C\c3ccc(N4CCOCC4)o3)[nH]c2c1	19
116	Nc1nc(CN2CCN(Cc3ccccc3)CC2)nc(N2CCCc3ccccc32)n1	-32
117	CC(C)c1ccc2[nH]c(O)c(N=NC(=O)c3cccc(S(=O)(=O)Nc4cccc(Cl)c4)c3)c2c1	9
118	CCOC(=O)C1(O)CC(C)=NN1C(=O)c1cccc(Br)c1 (stereo not given)	9
119	COc1ccccc1CN1C(=O)C(=O)N(Cc2cccc(C)c2)C1=O	-2
120	Fc1ccc(Oc2cnns2)cc1	2

Results in sequence from the entries so far.
Compounds 102 to 110 in Biofilm kill mix, in turn: 35, 21, 21, 1, 5, 19, 16, 15, 17

(listing goes on)
cpd	structure	Biofilm kill mix
121	CCOC(=O)c1ccc(NC(=O)CSc2nnc(NC(=O)c3ccc(S(=O)(=O)N4CCOCC4)cc3)s2)cc1	3
122	CC1CC(C)CN(C(=O)CCc2ccccc2)C1 (stereo not given)	11
123	CC(=O)/C(=N/Nc1ccccc1)Sc1nnc(C(O)c2ccccc2)n1-c1ccccc1 (stereo not given)	-4
124	Cc1cccc(-n2nc([N+](=O)[O-])c(N3CCN(C(=O)c4ccco4)CC3)[n+]2[O-])c1	8
125	Cc1nnsc1-c1nnc(SCC(=O)c2ccccc2)n1C1CC1	9
126	c1ccc(CSc2ccc(-c3cccs3)nn2)cc1	12
127	Cc1ccc(Sc2ccc(/C=C3/C(=O)NN(c4ccccc4)C3=O)o2)cc1	7
128	O=C(NCCc1ccc(Cl)cc1)c1cc2ccccn2n1	10
129	COc1cc(SC)ccc1C(=O)Nc1ncc(Cl)cc1Cl	9
130	CCCCCc1cc(=O)oc2c(C(CCN(CC)CC)c3ccc(OC)cc3)c(OC)cc(OC)c12 (stereo not given)	6

An excerpt; rates above refer to the full screens.
